# Source: PubChem
# RecA intein inh – Mtb RecA intein splicing inhibition. inhibition, %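 (about 9 µM by stock and volumes)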. 0.75% of 290,000 active. cell-free RecA intein splicing, fluorescence; in the data active means inhibition above about 30%;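 further: 0% = vehicle wells and 100% = reference inhibitor control wells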
# Target sequence (P9WHJ3 whole entry, looked up): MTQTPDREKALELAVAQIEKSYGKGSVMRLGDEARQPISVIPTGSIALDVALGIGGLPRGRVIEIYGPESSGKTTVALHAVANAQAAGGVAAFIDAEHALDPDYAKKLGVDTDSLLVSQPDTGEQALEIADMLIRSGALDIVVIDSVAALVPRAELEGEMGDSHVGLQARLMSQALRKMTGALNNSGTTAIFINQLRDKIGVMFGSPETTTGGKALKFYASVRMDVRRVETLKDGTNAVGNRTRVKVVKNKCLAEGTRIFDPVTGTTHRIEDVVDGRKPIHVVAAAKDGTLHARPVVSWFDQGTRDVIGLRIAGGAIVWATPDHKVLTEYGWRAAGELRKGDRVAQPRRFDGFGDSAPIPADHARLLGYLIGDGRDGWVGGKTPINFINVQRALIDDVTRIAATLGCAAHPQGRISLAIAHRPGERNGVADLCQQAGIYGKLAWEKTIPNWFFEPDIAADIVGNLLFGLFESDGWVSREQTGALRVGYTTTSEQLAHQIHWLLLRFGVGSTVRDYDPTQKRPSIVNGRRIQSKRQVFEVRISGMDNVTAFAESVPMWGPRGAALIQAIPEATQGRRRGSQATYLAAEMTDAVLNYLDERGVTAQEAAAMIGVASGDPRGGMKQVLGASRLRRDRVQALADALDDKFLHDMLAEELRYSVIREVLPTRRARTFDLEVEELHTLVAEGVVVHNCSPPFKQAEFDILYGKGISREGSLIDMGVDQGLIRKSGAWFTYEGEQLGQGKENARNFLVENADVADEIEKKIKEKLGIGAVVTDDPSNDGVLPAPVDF
# Arbovirus inh – arbovirus infection inhibition; inhibition, % at 10 µM; AID 1251; arbovirus infection cell-based antiviral screen; 0.37% of 200,000 active;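 active means inhibition from about 30%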;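 further: bluetongue infection of BSR cells; cell survival read as ATP light after 72 h; 0% = infected wells without compound and 100% = uninfected wells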
# Mtb growth – M. tuberculosis H37Rv growth inhibitors, H37Rv strain (AID 1626); M. tuberculosis H37Rv growth inhibition; higher % means a stronger effect; 0.95% of 220,000 active; inhibition, % at 10 µM; hits with a dose series show IC50 in µM;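 active means confirmed in a dose series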;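 further: bacteria incubated seven days before Alamar blue readout; 0% = bacteria only wells and 100% = bacteria with antibiotic wells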
# YopH PTP inh – YopH (Yersinia) phosphatase inhibition; AID 898; inhibition, %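 (about 10 µM by stock and volumes)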; 0.16% of 140,000 active; fluorescence Ex485/Em525;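 active means inhibition of 50% or more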;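 further: controls were vehicle for no effect and minimum signal wells for full effect; inactives centre near -20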
# Mtb bLac sens – beta-lactam sensitization of Mtb H37Rv | AID 434955 | M. tuberculosis H37Rv growth with meropenem, percent inhibition; hits of this screen are not shown here | 0.27% of 330,000 active | inhibition, % at 25 µM;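 active means about 74% or more and at least 40 points above the plate without the antibiotic, then above 30% in a dose series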;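 further: growth measured after seven days incubation then overnight dye step; 0% = bacteria only wells and 100% = bacteria with antibiotic; twin plates without the antibiotic show which effects depend on it; some results filed as inactive read as strong as hits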
# The depositor's hits bear a star; · = no result given. These rows are one share of the data, so the mix of outcomes need not match the whole.
SMILES	YopH PTP inh	Arbovirus inh	Mtb growth	Mtb bLac sens	RecA intein inh
CN(CCc1ccccn1)S(=O)(=O)c1ccc2c3c(cccc13)C(=O)N2	-32	2	16%	-3	-87
COC(=O)Nc1ccc(S(=O)(=O)N2CCC(C)CC2)cc1	-17	2	-9%	-10	1.4
CCn1c(/N=C/c2c[nH]c3ccccc23)nc2ccccc21	-18	8	-7%	-4	3.3
CCCCn1c(SCC(=O)c2ccc(O)c(O)c2)nc2ccsc2c1=O	-7	-16	-3%	6	8.8
O=C(NNC(=O)c1ccc(Oc2ccc(C3SCCS3)cc2)o1)c1ccc(Cl)cc1	·	·	-13%	1	-1.5
CCCC(C)c1nnc(NC(=O)CS(=O)(=O)Cc2ccccc2)s1 (stereo unspecified)	-5	4	-6%	2	4.2
CC(=O)c1sc(=S)n(-c2ccc(Cl)cc2)c1C	·	7	3%	-1	-2.4
O=C(O)Cc1ccc(NC(=S)NCc2ccco2)cc1	-14	3	-4%	-11	-3.4
CC(C)CCC(O)(CCC(C)C)C(=O)NN1CCCCC1	-24	4	2%	2	2.1
Cc1cc([N+](=O)[O-])nn1CC(=O)N/N=C/c1ccccc1Br	·	·	-10%	-7	·
Cc1cc(Br)ccc1NC(=O)CNC(=O)c1ccc(-n2cncn2)c([N+](=O)[O-])c1	·	·	·	4	1.2
COc1ccccc1CNC(=O)C1CCC(CNS(=O)(=O)c2ccc(C)cc2)CC1 (stereo unspecified)	·	·	·	-1	-1.1
COC(CNC(=O)c1ccc2c(c1)ncn2C1CCCCCC1)OC	·	·	·	1	-0.5
O=C(CCCN=C1NS(=O)(=O)c2ccccc21)OCc1ccc(F)cc1	·	·	·	-11	-1.6
CC(=O)N1CCN(S(=O)(=O)c2cccc(C(=O)N(Cc3ccccc3)c3cccc(C)c3)c2)CC1	·	·	·	-17	-0.6
CCCN(CC(=O)Nc1ccc(F)c(F)c1F)C(=O)c1ccc2c(=O)n3c(nc2c1)CCC3	·	·	·	-1	-1.9
Cc1ccc(-c2nnc(SCC(=O)N3CCOCC3)nc2-c2ccc(C)cc2)cc1	-122	-24	7%	-3	-3.8
CC(=O)N[C@@H](Cc1ccc(O)cc1)CN1C(N)=NC[C@@H]1CC(C)C	·	·	·	-11	-1.9
COC(=O)C1CCN(C2CC(=O)N(c3cc(C)cc(C)c3)C2=O)CC1 (stereo unspecified)	·	2	5%	-12	-0.2
CC(C)(C)CN1CCN(CCCc2ccccc2)C(CCO)C1 (stereo unspecified)	·	·	·	-6	-1.9
O=C(Nc1ccc(Oc2ccccc2)cc1)C1CCCN(c2ncccn2)C1 (stereo unspecified)	-22	4	·	-6	-3.2
CCOc1ccc(CCNC(=O)c2cc(S(=O)(=O)N3CCOCC3)ccc2C)cc1OCC	·	·	·	2	4.0
O=C(c1ccc(Cl)c(S(=O)(=O)N2CCCCC2)c1)N1CCCCC1	·	·	·	4	1.7
CCN(CC)CCN(C(=O)c1ccc2ccccc2c1)c1nc2ccc(F)cc2s1	·	·	·	-1	7.4
COc1ccc2cc(C(=O)C3CCCN(C(=O)c4csnn4)C3)ccc2c1 (stereo unspecified)	·	3	-6%	-6	-1.1
O=C(NCc1ccccn1)Nc1ccc(Cl)cc1	·	·	·	-4	1.9
CC(C)c1ccc(N2CCN(C(=O)c3ccccc3NC(=O)/C=C\C(=O)O)CC2)cc1	-9	6	2%	43	14
O=C(CN(CC1CCCO1)C(=O)CNS(=O)(=O)c1ccccc1)NCc1ccco1 (stereo unspecified)	·	5	-5%	-5	-1.4
N#C/C(=C\c1cc(Br)ccc1F)C(=O)NC1CC1	·	·	·	-15	8.4
c1ccc(CSc2ccc3nnc(-c4ccccn4)n3n2)cc1	·	0	12%	-1	-8.1
CNC(=S)N(CCc1c(C)[nH]c2ccccc12)Cc1cc(OC)c(OC)c(OC)c1	-28	2	·	1	2.1
CCCCC(=O)N/N=C/c1c(O)n(CCCC)c(=S)[nH]c1=O	·	·	0%	0	·
N#C/C(C(=O)NCc1ccco1)=C1/SC(Cc2ccc(F)cc2)C(=O)N1c1ccccc1 (stereo unspecified)	0	7	-4%	-3	-4.3
COc1ccccc1CCNC(=O)C(=O)NCC1OCCN1S(=O)(=O)c1ccc(Cl)cc1 (stereo unspecified)	·	·	·	-5	-4.7
Cc1nc(N)c(C#N)c(-c2ccccc2Cl)c1C	-18	1	-9%	1	-2.8
CN1C(=O)N(c2cccc3ccccc23)C(n2cncn2)C1(C)C (stereo unspecified)	-35	5	-12%	-3	-2.8
O=C(C1CCN(Cc2ccc(F)cc2)CC1)N1CCN(C/C=C/c2ccccc2)CC1	·	3	6%	3	0.1
Cc1ccc2c(c1)nnn2C1CCN(CC(=O)N2CCN(c3ccc(F)cc3)CC2)CC1	-11	9	56%	90	0.2
CC12CCC(C(=O)NCc3ccc4c(c3)OCO4)(OC1=O)C2(C)C (stereo unspecified)	-10	2	2%	-10	6.1
COc1cccc(NC(=O)c2ccc(NCCCN3CC(C)CC(C)C3)c([N+](=O)[O-])c2)c1 (stereo unspecified)	·	8	11%	·	2.4
CC(C)c1ccc(NC(=O)Cn2ncc3ccccc32)cc1	·	·	·	1	-1.0
CCCC[C@@H]1C[C@H]1[C@@H](NC(=O)c1ccco1)c1ccc(C(=O)OC)cc1	·	·	6%	1	6.4
Cc1cc(C)c2cc(C#N)c(SCC(=O)NCc3ccco3)nc2c1	2	-3	·	5	0.4
COc1ccc2cc(CN(CC3CCCO3)C(=S)Nc3ccccc3)c(=O)[nH]c2c1 (stereo unspecified)	·	-14	-5%	-2	-3.0
CC(NC(=O)COC(=O)c1cccs1)c1ccccc1 (stereo unspecified)	·	·	·	1	0.5
CC1CN(C(=O)CSc2nnc(NC(=O)NC(C)(C)C)s2)CC(C)O1 (stereo unspecified)	·	·	·	-11	1.9
CC(=O)Nc1cccc(OCC(=O)Nc2sccc2C(N)=O)c1	·	·	9%	-9	-3.7
Cc1ccc(C)c(N(C)C(=O)c2cc3c(=O)[nH]c4ccc(C)cc4c3s2)c1	·	·	10%	60	-0.9
Cc1cc(NC(=O)c2noc3c2CCc2ccccc2-3)no1	·	-2	·	4	1.4
C=C(C)CC(Nc1ccc(OC)cc1)c1ccco1 (stereo unspecified)	·	-7	12%	-7	0.4
CCOC(=O)N1CCN(S(=O)(=O)c2ccc(C(=O)NNc3nc4cc(C)cc(C)c4s3)cc2)CC1	-21	-31	4%	-2	13
Cc1cc(C(=O)NCC(C)C)c2ccccc2n1	-12	-7	5%	3	2.9
Cc1ccc(NC(=O)C(=O)NCCCN2CC(C(=O)O)CC2=O)cc1 (stereo unspecified)	·	·	·	-1	-0.7
Cc1occc1-c1nnc(SCC(=O)NCC2CCCO2)n1C (stereo unspecified)	-27	6	-2%	-2	-1.9
Cc1ccc(C)c(NC(=O)C2C3CCCC2C3c2ccccc2)c1 (stereo unspecified)	-34	-1	-1%	71	-0.5
CC(C)NC(=O)CSc1nnc(CNC(=O)OC(C)(C)C)n1C	·	·	0%	-6	-0.7
O=C(Nc1cc(Br)ccc1O)c1cc(-c2ccc3c(c2)OCO3)on1	·	·	·	1	2.8
COC(=O)C(C)Nc1cccc(Br)c1 (stereo unspecified)	·	·	7%	1	-6.0
CC(=O)N1CCOc2ccc(S(=O)(=O)N3CCC(C(=O)Nc4ccccc4F)CC3)cc21	·	·	·	0	-0.6
Cc1cccc(NCc2ccccc2O)n1	-45	-4	5%	-7	0.9

# Complete entries from above:
# Cc1occc1-c1nnc(SCC(=O)NCC2CCCO2)n1C (stereo unspecified) is listed as YopH PTP inh: -27; Arbovirus inh: 6; Mtb growth: -2%; Mtb bLac sens: -2; RecA intein inh: -1.9
# Cc1cccc(NCc2ccccc2O)n1 is listed as YopH PTP inh: -45; Arbovirus inh: -4; Mtb growth: 5%; Mtb bLac sens: -7; RecA intein inh: 0.9

# Next records follow:
SMILES	YopH PTP inh	Arbovirus inh	Mtb growth	Mtb bLac sens	RecA intein inh
CC(=O)N1CCN(c2nc(-c3cccs3)nc3ccccc23)CC1	·	-9	4%	4	3.4
Cc1c(C(=O)N2CCCc3ccccc32)sc2nc(-c3ccccc3)cn12	·	-7	12%	7	-3.4
O=CN1CCN(S(=O)(=O)c2ccc(Cl)c(C(=O)O)c2)CC1	·	7	-2%	-2	-0.7
CCOc1ccc(CCNC(=O)COC(=O)c2ccc(F)c(S(=O)(=O)N3CCOCC3)c2)cc1OCC	·	·	·	3	-1.5
Cc1nc(C(C)NC(=O)CCc2nnc(CCCc3ccccc3)o2)c(C)s1 (stereo unspecified)	·	-2	50%	-5	2.0
O=C(COC(=O)c1ccc(O)cc1O)Nc1nnc(-c2ccccc2)o1	·	·	·	8	1.9
Cc1ccc(F)cc1NCC(=O)Nc1ccc(Br)cc1	-14	17	18%	9	0.4
CC12CCC(C(=O)N(CSC(=S)N/N=C\c3ccccc3O)C1=O)C2(C)C (stereo unspecified)	-33	-8	0%	21	5.9
O=C(Nc1ccc(F)cc1F)Nc1ccc(F)cc1F	·	9	-3%	2	-1.4
CC(NC(=O)/C=C/c1ccc(Br)cc1)c1ccc(Cl)cc1 (stereo unspecified)	-40	0	3%	-4	·
Nc1ncccc1OCc1cccc(C(F)(F)F)c1	·	-13	17%	-5	0.5
O=[N+]([O-])c1nn(-c2ccc3c(c2)OCCO3)n(O)c1=NC1CCCCCC1	-24	-29	13%	100	-1.1
CCN(CC)CCNC(=O)C(C(=O)c1ccccc1)n1ccccc1=O (stereo unspecified)	-8	9	-5%	6	-2.2
CCC1(c2ccccc2)NC(=O)N(CC(=O)NNC(=O)CCN2CCN(c3ccccc3)CC2)C1=O (stereo unspecified)	·	·	·	-6	-1.1
C=CCc1cccc2cc(C(=O)N3CCN(c4ccccn4)CC3)c(=O)oc12	·	14	-3%	-8	-5.3
O=C(N/N=C/c1ccco1)c1csc2c1CCCC2	·	·	6%	39	0.7
NC(=O)c1ccc(NC(=O)CCc2nc3ccccc3s2)cc1	·	-4	8%	-1	·
COc1ccc(S(=O)(=O)n2cnc3ccccc32)cc1OC	·	·	·	5	6.7
Cc1nccn1CCc1n[nH]c(=S)n1Cc1ccccc1	11	-2	-12%	-8	-1.9
Cc1cccc(NC(=O)NNC(=O)c2ccc(C)c([N+](=O)[O-])c2)c1	·	1	-7%	5	0.7
O=S(=O)(Nc1cc(F)ccc1F)c1cccc2nonc12	·	·	·	-4	-0.5
COc1ccc(NS(=O)(=O)c2cc(NC(=O)CCNC(C)=O)ccc2N2CCOCC2)cc1	·	·	·	-10	-0.9
CC(C)(Cc1ccc(O)cc1)NC(=O)c1ccccc1	·	·	·	5	-7.9
CCn1c(SCC(=O)Nc2cc(C)on2)nnc1-c1ccc(OC)cc1	·	-3	-5%	-4	2.0
CCc1nnc(NC(=O)c2ccc(S(=O)(=O)N3CCCCC3)cc2)s1	·	·	·	1	1.7
Clc1c2c(nc3ccccc13)CCC2	·	·	·	-16	-4.8
CC1CCCN(S(=O)(=O)CCNC(=O)c2ccccc2)C1 (stereo unspecified)	·	·	·	-7	-2.4
Cc1cc(C)n(-c2ncc3c(n2)N(C)CCOC3=O)n1	·	·	-7%	-1	-0.9
Cc1nc2c(C(=O)N3CCCC3)cnn2c(C)c1Cc1c(F)cccc1Cl	-16	3	2%	2	-1.0
CCNC(=O)n1nccc1C(C)Oc1cccc(C(F)(F)F)c1 (stereo unspecified)	-23	1	-3%	5	-0.8
CNC(=S)/N=C(/Nc1ccccc1)c1ccccc1	·	11	3%	7	-2.5
Cc1nnc(C)c2c(C)n(N)c(C)c12	·	·	-16%	3	-3.5
Cc1csc(NC(=O)C(NC(=O)c2ccccc2F)C(C)C)n1 (stereo unspecified)	·	26	5%	1	6.3
CCOCCCNC(=O)c1cc2cc3cc(OC)ccc3nc2o1	·	·	·	-1	-3.1
Cc1ccsc1C(=O)OCC(=O)c1cc(C)n(CC2CCCO2)c1C (stereo unspecified)	-27	1	-8%	-6	2.7
COc1cc(CNn2nnnc2N)cc(Br)c1OCc1c(Cl)cccc1Cl	-51	4	-5%	-3	-0.5
Cc1ccc(Sc2ncnc3onc(C)c23)c(C)c1	·	-7	14%	·	·
CC1(NC(=O)Cc2ccc(S(=O)(=O)N3CCOCC3)s2)CCS(=O)(=O)C1 (stereo unspecified)	·	·	·	2	-1.3
CCC(CC)C(=O)Nc1cccc(C(=O)Nc2ccc(OC)cc2[N+](=O)[O-])c1	-30	0	0%	-1	-0.3
O=C(CN1C(=O)S/C(=C/c2cccn2-c2ccc(O)cc2)C1=O)N1CCCC1	·	·	·	2	-0.2
CC1=C(C(N)=O)C(c2ccc(Cl)cc2Cl)n2ncnc2N1 (stereo unspecified)	-29	12	-3%	-1	·
O=C(Nc1ccc(O)cc1)C1CCCN1S(=O)(=O)c1ccc(F)cc1 (stereo unspecified)	-41	-13	-11%	0	-0.8
